AF4-AF9 inh – inhibitors of human MLL-AF4/AF9 interaction; P42568; inhibition, % at 10 µM; AlphaScreen, biotin-AF4 peptide binding to FLAG-AF9; AID 651704; 350,000 tested, 0.47% active;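 active = every replicate reaching a set inhibition limit, whatever the replicate mean, cut at about 25% in these data; inconclusive = mean inhibition reaches that limit but some replicates miss it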;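 also: 0% = plate neutral control median and 100% = total signal loss; the record names both 10 and 1 µM as test concentration; the first replicate is given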
Target sequence (P42568 whole entry, looked up): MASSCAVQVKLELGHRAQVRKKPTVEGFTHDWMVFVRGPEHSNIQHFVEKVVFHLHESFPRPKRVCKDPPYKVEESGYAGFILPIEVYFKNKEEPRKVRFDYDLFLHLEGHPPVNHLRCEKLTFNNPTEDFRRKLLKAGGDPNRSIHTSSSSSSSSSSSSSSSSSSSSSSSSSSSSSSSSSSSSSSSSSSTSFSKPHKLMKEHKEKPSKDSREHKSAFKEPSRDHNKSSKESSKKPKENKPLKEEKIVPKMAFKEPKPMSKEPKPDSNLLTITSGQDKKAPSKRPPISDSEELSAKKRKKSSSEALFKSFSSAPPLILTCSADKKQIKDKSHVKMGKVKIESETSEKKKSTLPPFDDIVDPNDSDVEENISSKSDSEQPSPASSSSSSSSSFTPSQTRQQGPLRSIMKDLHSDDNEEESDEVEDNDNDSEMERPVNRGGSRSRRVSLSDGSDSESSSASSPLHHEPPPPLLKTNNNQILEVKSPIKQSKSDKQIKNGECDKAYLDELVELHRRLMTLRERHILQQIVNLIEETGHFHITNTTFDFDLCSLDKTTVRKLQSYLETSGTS
Vif TR-FRET – HIV-1 Vif–A3G interaction blockers – biochemical, TR-FRET, GST-Vif 1-94, biotin-A3G peptide, dose response retest, primary screen (AID 1117319); TR-FRET GST-Vif / biotin-A3G peptide binding; higher % means a stronger effect; test concentration not given here; strong numbers were not always called active; inhibition, %, or IC50 in µM where a hit was titrated; 260,000 tested, 0.57% active;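 active = above the screen mean plus three standard deviations and confirmed in dose response; inconclusive = results disagree or hit not tested in dose response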;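 also: Vif residues 1-94 fused to GST binding biotinylated APOBEC3G peptide 110-148; 0% = full assay without inhibitor and 100% = GST in place of GST-Vif; retest series ran down from 100 µM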
Beta cell apopt – blocks beta cell apoptosis. protection from apoptosis, % (test concentration not listed). INS-1E cytokine-induced death, ATP luminescence, 48 h; percent of positive-control rescue, neutral wells zero. AID 435005. 300,000 tested, 0.8% active;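 active = all replicates at 75% or more, or half of them and the mean; inconclusive = half reach 75% but not the mean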;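 also: 0% = cytokine-treated negative control wells and 100% = positive control rescue; higher means more ATP so stronger rescue from cytokine killing; wells of about 40 µL received 100 nL stock; the first replicate is given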
Ecoli rRNA inh – inhibitors of bacterial rRNA selective over humanized ribosomes. E. coli WT GFP vs humanized-ribosome RFP mutants, fluorescence, 24 h; active compounds read low; DMSO median 0, no signal -100. GFP signal change (wild-type ribosome), % (test concentration not listed). 350,000 tested, 1.6% active;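 active = significant combined selectivity score with lowered wild-type GFP, culture density cut under 30%, mutant RFP and density less affected; inactive = any of these conditions unmet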; also: one replicate is shown; some compounds called inactive have numbers as strong as hits
Calb FLC – affects C. albicans growth with fluconazole | growth inhibition, % (test concentration not listed) | C. albicans CaCi-2 (fluconazole-resistant clinical isolate) + fluconazole, Alamar Blue growth, 48 h | 300,000 tested, 0.57% active | AID 1979;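 active = most replicates above 75%; inconclusive = exactly half above 75%; inactive = most below 75%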;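 also: all wells also contain fluconazole at 8 µg/ml as a sub-toxic cotreatment; 0% = median of DMSO wells and 100% = median of geldanamycin control wells; wells of about 8 µL received 7.5 nL stock; the first replicate is given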
A1 inh – inhibitors of the anti-apoptotic protein A1, read as caspase activation; MEF A1-2A-BIM cells, Caspase-Glo 3/7 luminescence, 3 h; percent of clofoctol response, vehicle zero; caspase activation, % (no concentration beside the values); 330,000 tested, 0.066% active; AID 2462;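 active = over half of replicate activation scores above 10%, or exactly half above 10 with the replicate mean above 10; inconclusive = replicate mean below 10 yet half the replicates above 10; inactive = over half of replicates below 10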;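 also: wells of about 30 µL received 50 nL stock; many hits fall short of the cut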
T cruzi inh – blocks replication of Trypanosoma cruzi; AID 1885; inhibition, % (no concentration beside the values); 300,000 tested, 1.4% active; T. cruzi beta-gal in NIH3T3, luminescence, 90 h;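 active = mean inhibition across valid replicates above about 55%, limit read from the data; inconclusive = mean below that limit but half or more replicates reach it; inactive = mean below it, under half of replicates reach it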;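 also: signal also drops with host cell toxicity which is not excluded here; 0% = plate median of DMSO wells and 100% = zero luminescence signal; higher percent means less beta-gal luminescence so fewer parasites; stock transfer was 50 nL into about 50 µL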
RanGTP-Impb inh – disruptors of Ran-importin-beta complex formation – biochemical, FRET, CFP-Ran, YFP-importin-beta, homogeneous, primary screen; inhibition, % (no concentration beside the values); AID 2216; 300,000 tested, 1.1% active; cell-free CFP-Ran/YFP-importin-beta FRET ratio;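 active = most replicates above 15%; inconclusive = exactly half above 15%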;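 also: 0% = DMSO wells and 100% = Ran loaded with GDP instead of GTP; wells of about 40 µL received 100 nL stock; the first replicate is given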
Ecoli rRNA inh OD600 – recorded beside Ecoli rRNA inh, whose call it bears; OD600 change, %; measured here: OD600 growth;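 optical density of the mix in the first replicate; 0 = DMSO median and -100 = no signal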
Ecoli rRNA inh RFP – recorded beside Ecoli rRNA inh, whose call it bears; RFP signal change, %; measured here: RFP humanized mutant strains;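 first replicate; 0 = DMSO median and -100 = no signal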
Starred values were filed as active, the others as inactive; u = inconclusive; x = not tested or not shown; & = joins results of further samples. A portion of the library; rates above refer to the full screens.

entry	canonical_smiles	AF4-AF9 inh	Ecoli rRNA inh OD600	Calb FLC	A1 inh	T cruzi inh	Beta cell apopt	Vif TR-FRET	Ecoli rRNA inh	RanGTP-Impb inh	Ecoli rRNA inh RFP
1	CN(CCCCOc1ccc(F)cc1)Cc1ccccc1	-4.8	-3	-1	-0.6	50	x	x	3	1.4	0.3
2	Cc1cccc(C(=O)Nc2cccc(C(=O)N/N=C/c3ccncc3)c2)c1	-0.7	4	5	0.2	-2	-10	x	0	9.5	0.0
3	CCOC(=O)c1c([N+](=O)[O-])c(C)[nH]c(=O)c1C#N	-7.6	19	8	2.3	2	0	-4%	2	4.5	-1.7
4	CCCNC(=O)COCc1cc(-c2ccc3c(c2)OCO3)on1	-2.6	-17	-2	-0.1	-12	-6	6%	4	7.3	-4.0
5	O=C(N[C@@H](Cc1ccccc1)C(=O)OCc1ccccc1)c1nc[nH]c1C(=O)NCc1ccccc1	4.6	-5	-12	-0.6	-14	2	-12%	7	-1.5	-9.2
6	CC(C)Oc1c(Cl)cc(CNC(C)(C)CO)cc1Cl	x	x	1	0.1	6	x	-4%	x	-2.0	x
7	COc1ccc(Cl)cc1S(=O)(=O)N(C)CC(=O)NCc1ccccn1	-0.5	5	0	-0.4	5	1	-4%	1	6.5	-0.8
8	CCOC(=O)c1nn(-c2ccc(F)cc2)c(=O)c(C#N)c1C	1.6	-8	4	0.7	0	-2	4%	0	1.9	0.7

Entries of single compounds, quoted from the list. Order of screens: AF4-AF9 inh	Ecoli rRNA inh OD600	Calb FLC	A1 inh	T cruzi inh	Beta cell apopt	Vif TR-FRET	Ecoli rRNA inh	RanGTP-Impb inh	Ecoli rRNA inh RFP
Results for `O=C(N[C@@H](Cc1ccccc1)C(=O)OCc1ccccc1)c1nc[nH]c1C(=O)NCc1ccccc1` : 4.6	-5	-12	-0.6	-14	2	-12%	7	-1.5	-9.2
Results for `CN(CCCCOc1ccc(F)cc1)Cc1ccccc1` : -4.8	-3	-1	-0.6	50	x	x	3	1.4	0.3

More compounds:
entry	canonical_smiles	AF4-AF9 inh	Ecoli rRNA inh OD600	Calb FLC	A1 inh	T cruzi inh	Beta cell apopt	Vif TR-FRET	Ecoli rRNA inh	RanGTP-Impb inh	Ecoli rRNA inh RFP
9	COc1cccc2[nH]c3c(=O)[nH]cnc3c12	1.5	18	7	-0.3	-7	-5	-2%	6	1.5	6.2
10	Cc1ccc(CNC(=O)C2CCN(S(=O)(=O)N3CC(C)CC(C)C3)CC2)cc1 (stereo not given)	-3.1	8	-19	0.7	3	5	x	14	-0.3	1.7
11	O=C(NC1CCCCCC1)C1CCN(C(=O)Cc2ccccc2)CC1	x	x	5	-0.1	-3	-1	-5%	x	2.1	x
12	c1ccc(C2=Nc3ccccc3OC2)cc1	x	x	-16	0.7	-4	-2	9%	x	6.6	x
13	Cc1ccc(S(=O)(=O)Nc2cc(=O)[nH]c(SCc3ccc(Cl)cc3)n2)cc1	3.0	x	x	0.5	x	-11	-2%	x	x	x
14	Cc1ccccc1NC(=O)c1cc2c(C)nc3ccccc3c2o1	-1.7	8	-7	-0.3	18	5	x	17	-3.3	0.2
15	Cc1nn(C)c(C)c1S(=O)(=O)N1CCCC(C(=O)NCC2COc3ccccc3O2)C1 (stereo not given)	-1.4	1	x	0.5	x	-6	13%	4	x	2.0
16	Cc1ccc(NS(=O)(=O)c2ccc(OCC(=O)NCc3cccnc3)cc2)cc1	14	-9	-4	0.8	7	0	x	-2	-1.5	2.0
17	COc1ccc(-c2csc(N(CC3CCCO3)C(=O)c3cccs3)n2)cc1 (stereo not given)	x	x	u	-1.6	47	1	9%	x	-3.3	x
18	COc1cccc(CC2(CO)CCN(S(=O)(=O)N(C)C)CC2)c1	-1.1	1	3	-1.0	-3	-2	-9%	-2	18*	-0.4
19	Cc1ccc(S(=O)(=O)Nc2ccc3nc(C)sc3c2)cc1	x	x	4	-1.7	-29	25	64%	x	-2.4	x
20	Cn1ccc(NC(=O)Nc2cccc([N+](=O)[O-])c2)n1	3.2	8	-3	0.0	9	-2	7%	-1	0.1	0.4
21	CC(C)Oc1ccc(CC(=O)NNC(=S)Nc2ccc(Br)cc2)cc1	4.6	-34	-4	-1.1	23	9	x	-21	-1.8	9.9
22	COc1ccc(NC(=O)c2cc(C)n(Cc3cccs3)c2C)cc1	x	4	-3	-2.7	6	2	-5%	4	1.0	7.7
23	CC1(c2ccccc2Cl)NC(=O)N(CC(=O)Nc2cccnc2Cl)C1=O (stereo not given)	-0.5	1	0	-0.2	-11	1	-2%	0	-1.8	2.5
24	Cc1ccc(CNC(=O)c2ccc3nc4[nH]c5ccccc5c4nc3c2)cc1	x	x	2	x	26	x	-8%	x	7.9	x
25	COc1cc(OC)c(NC(=O)c2csc(C)c2)cc1Cl	-1.7	-14	0	-0.3	5	1	4%	-4	13	-1.2
26	CCOc1ccc(-n2ccnc(SCC(=O)Nc3ccc(OC)cc3OC)c2=O)cc1	-1.3	-15	37	-0.6	9	-12	-3%	-14	-1.2	-0.2
27	COC(=O)Cc1c(CSc2ccccc2)oc2ccc(O)c(CN(C)C)c12	7.7	3	-6	1.4	7	-11	6%	2	-1.6	2.1
28	O=C(NCc1nc2ccccc2[nH]1)C1=C[C@H](c2ccc3c(c2)OCO3)C[C@H](OCc2ccc(CO)cc2)O1	-7.5&-7.5	-2	14	-0.1	-16	-4	x	-18	1.9	18
29	COc1ccc(CCNc2ccc(S(=O)(=O)N3CCCC3)cc2[N+](=O)[O-])cc1	x	x	-9	1.1	8	-11	x	x	-1.9	x
30	CC(C)COC(=O)NCCOC(=O)Nc1cccc(Cl)c1	x	x	11	-0.8	-9	39	2%	x	-1.9	x
31	C=CCNC(=S)N/N=C/c1ccc(-c2ccc(OC)cc2)o1	11	-7	104*	-1.9	91*	14	8%	-14	0.1	6.0
32	O=C(Cc1cccs1)N/N=C\c1ccc(O)cc1	x	x	1	-3.4	-19	6	1%	x	1.0	x
33	O=C(OCC(=O)N1c2ccccc2Sc2ccccc21)C1CC(=O)N(Cc2ccco2)C1 (stereo not given)	x	x	-3	0.2	12	-9	0%&0%	x	1.9	x
34	COc1cccc2c1C(=O)C[C@]1(CCCC[C@@H]1C)O2	0.0	-5	10	1.3	-1	-4	x	-4	2.9	-14
35	CCOC(=O)c1c(CSc2ccccc2)oc2ccc(O)cc12	-4.5	-70	u	0.5	15	-4	5%	-38	-2.3	-6.8
36	Cc1cc(=O)n2[nH]c(NCc3ccccc3F)nc2n1	-3.2	22	-3	-0.5	-14	-6	-5%	12	u	-8.2
37	CCN(CC)C(=O)C1CC(c2ccc(OC)cc2)=NO1 (stereo not given)	x	x	10	0.6	10	-1	1%	x	0.5	x
38	COCCCNC(=O)CC(NS(=O)(=O)c1ccc(C)cc1)c1ccc(OC)cc1 (stereo not given)	-72	2	3	0.0	-1	-2	3%	9	-0.5	-0.9
39	O=C(CSc1nnc(-c2cccnc2)o1)Nc1ccccc1Br	-0.9	12	-2	0.0	-16	5	x	8	-0.9	-1.1
40	N#CC1=C(Nc2ccc(Br)cc2)CCC1	x	x	-2	-0.4	-32	-7	12%	x	u	x
41	COc1ccc(-c2nc3nc(C)cc(C)n3n2)cc1	x	x	-11	-6.1	-1	6	2%	x	3.7	x
42	COc1ccccc1NC(=O)CCc1nc(-c2ccccc2F)no1	2.0	5	-5	-0.8	-10	0	x	4	-3.1	-1.9
43	COc1ccc(-c2csc3nc(C)nc(N4CCN(c5ccc(C(C)=O)cc5)CC4)c23)cc1OC	2.6	1	3	0.5	53	12	4%	2	3.0	-7.2
44	COc1ccc(C=O)cc1CN1CCCN(Cc2ccc(Cl)cc2)S1(=O)=O	0.2	-18	1	-0.2	13	-10	-2%	-18	0.1	-3.2
45	CC(C)Sc1nnc(NC(=O)c2ccco2)s1	-4.9	5	54	0.0	-17	-24	-3%	2	-3.5	-1.4
46	CCn1cc(CN(C)S(=O)(=O)c2cccc([N+](=O)[O-])c2)cn1	-0.5	x	7	-0.6	1	3	6%	x	-0.7	x
47	CCOC(=O)C1C(=O)NC(N2CCCCC2)=NC1c1ccco1 (stereo not given)	x	x	26	0.0	-3	-5	12%	x	3.3	x
48	CCc1ccc(CN(Cc2cccnc2)C(=O)/C=C/c2ccc(OC)cc2)cc1	17	-60	2	0.3	64*	23	-6%	-18	3.1	4.3
49	Cc1cccnc1NCC(O)COc1ccccc1 (stereo not given)	x	x	-7	-0.8	-10	-7	-1%	x	0.9	x
50	Cc1nnc(SCc2ccc(F)cc2Cl)s1	x	x	27	-0.4	3	-9	3%	x	0.4	x
51	COc1cc(OC)cc(C(=O)Nn2c(C)nc3ccccc3c2=O)c1	x	x	-20	-0.8	11	-3	u	x	-0.6	x
52	CCOc1ccc(CN(C)C(=O)c2ccc(NC(=O)CC3SC(N4CCCC4)=NC3=O)cc2)cc1 (stereo not given)	6.0	-6	11	0.9	2	x	5%	-1	0.3	2.1
53	Cc1cc(NC(=O)c2ccccc2[N+](=O)[O-])ccc1Br	1.5	-34	29	1.0	24	x	x	-36	0.1	-8.2
54	Cc1ccc(OCC(=O)NC(C)c2ccc(Cl)c(Cl)c2)c([N+](=O)[O-])n1 (stereo not given)	4.4	-4	15	-0.1	4	-13	x	-4	-1.1	2.1
55	CSc1ccccc1NC(=O)CN(C)Cc1cc(=O)n2ccsc2n1	0.7	0	3	0.1	-7	-1	18%	-8	-1.0	-0.6

Bioassay records as filed in PubChem BioAssay.
